Calb biofilm kill – mixture kills Candida albicans biofilm cells; C. albicans biofilm persisters + clotrimazole, fluorescence viability; primary screen in compound mixtures of four per well; inhibition, % at 7.6 µM; 0.02% of 120,000 active; AID 1242;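 active = inhibition above 30.3% in the primary screen of four-compound pools, then above 30% when the compound was retested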;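 also: compounds exposed to preformed 24 h biofilms for 48 h; the number belongs to the whole pool; some results filed as inactive read as strong as hits; inactives centre near 12; 0% = biofilm with clotrimazole alone and 100% = kill control; retested singly at about 60 µM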
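Incubation: 24 h biofilm formation, then 48 h compound exposure, 37 °C | Material: C. albicans biofilms | Buffer or medium: RPMI/MOPS medium, pH 7.0 | Measured by: 2-h Alamar Blue fluorescence, 535/590 nm excitation/emission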
Numbers without * were called inactive. The list is partial; rates above refer to the full screens.

SMILES | Calb biofilm kill
O=C(NC1CCCCCC1)C1c2ccccc2C(=O)N1Cc1cccs1 (stereo not drawn) | 9.5
CCOC(=O)NC(NS(=O)(=O)c1ccccc1)(C(=O)OCC)C(F)(F)F (stereo not drawn) | 0.8
Cc1nn(CCS(=O)(=O)c2ccc(Cl)cc2)c(C)c1Br | 21.5
O=[N+]([O-])c1ccc(-c2nc(C(Cl)Cl)c3ccccc3n2)cc1 | 22.7
CC(C(=O)Nc1ccccc1-c1ccccc1)N1CCN(Cc2ccccc2)CC1 (stereo not drawn) | 10.9
CCN(CC)S(=O)(=O)c1cccc(-c2nn(-c3ccccc3)cc2/C=C(\C#N)C(=O)NCc2ccco2)c1 | 3.6
COC(=O)[C@H](Cc1ccccc1)NC(=O)N1CCN(c2ccc(F)cc2)CC1 | 12.9
Cc1ccc(NC2=C(Cl)C(=O)OC2OC(C)C)cc1 (stereo not drawn) | 12.2
OCC1(CC2CCCCO2)CCN(Cc2nc3ccccc3[nH]2)CC1 (stereo not drawn) | 21.1
COc1ccccc1C(=O)NC(=O)OCCn1c(C)cnc1[N+](=O)[O-] | 17.5
CC(C)(C)CC(=O)Nc1nn[nH]n1 | 7.0
CC[N+]1(CC)CC2=Cc3ccccc3CC2C1 (stereo not drawn) | -3.9
COC(CNC(=O)c1ccc2c3c(onc13)-c1ccccc1C2=O)OC | -0.3
O=C(Nc1ccc([N+](=O)[O-])cc1)N1CCCCC1 | -2.2
COC(C[C@H](O)[C@H](C)[C@H](O)COCc1ccccc1)OC | 9.3
COC(=O)c1ccc(/C=N/N2CCN(Cc3ccc(Cl)cc3)CC2)cc1 | 28.2
O=C(NS(=O)(=O)c1ccc(Cl)cc1)c1ccccc1 | -3.8
COc1ccc(CN2C(=O)NC3(CCCc4ccccc43)C2=O)cc1F (stereo not drawn) | 12.7
COc1cc(/C=N/NC(=O)CN(CCc2ccccc2)S(=O)(=O)c2ccc(NC(C)=O)cc2)cc(OC)c1OC | 8.8
O=C(Nc1cccs1)Nc1ccc(F)cc1F | 2.0

In the list so far, these have an aryl methoxy group.
SMILES | Calb biofilm kill
COc1ccccc1C(=O)NC(=O)OCCn1c(C)cnc1[N+](=O)[O-] | 17.5
COc1ccc(CN2C(=O)NC3(CCCc4ccccc43)C2=O)cc1F (stereo not drawn) | 12.7
COc1cc(/C=N/NC(=O)CN(CCc2ccccc2)S(=O)(=O)c2ccc(NC(C)=O)cc2)cc(OC)c1OC | 8.8

Next section.
SMILES | Calb biofilm kill
CCn1nnnc1SCC(=O)Nc1nc2ccc(OC)cc2s1 | 20.3
O=C(Nc1cccnc1Cl)c1ccc(=O)oc1 | 23.0
Cc1ccc(OC(C)C(=O)N/N=C/c2ccccn2)cc1 (stereo not drawn) | 17.2
CCOC(=O)Cn1nc(C)c(NC(=O)COc2ccc(OC)cc2)c1C | 23.6
O=C(NNS(=O)(=O)c1ccc(Cl)cc1)c1cccc(S(=O)(=O)N2CCOCC2)c1 | 22.2
O=C(N/N=C/c1c[nH]c2ccccc12)c1cccc([N+](=O)[O-])c1 | 22.9
CCOC(=O)N1CCC(NS(=O)(=O)c2ccc(C)cc2)CC1 | 9.2
COc1ccc2cc(CCNC(=O)c3cccc([N+](=O)[O-])c3)c(=O)[nH]c2c1 | 16.0
COc1cc(NC(=O)c2ccc3c(c2)OCCO3)ccc1NC(=O)c1ccco1 | 5.3
Cc1ccc(Cc2nc(-c3ccncc3)no2)cc1 | -4.2
COc1ccc(C2(NC(C)=O)CCN(C(=O)c3cccs3)CC2)cc1 | 16.1
Cc1ccc(C(C)(C)C)c(OCCCn2ccnc2)c1 | -1.4
CS(=O)(=O)N1CCC(C(=O)Nc2ccc(C(F)(F)F)cc2)CC1 | 19.6
CC(=O)OCCCNc1cc(Sc2ccc(Cl)cc2)c2nonc2c1[N+](=O)[O-] | 11.0
O=C(CCc1nc2ccccc2s1)N1CCN(c2ccccc2)CC1 | 10.8
Cn1c2c(c(=O)n(C)c1=O)C(C(F)(F)F)(C(F)(F)F)N=C(CCC1CCCCC1)N2 | 10.7
CCc1cccc(OCCCn2ccnc2)c1 | 14.8
O=C(NCc1nc2ccccc2[nH]1)C1=C[C@@H](C2CC2)C[C@@H](OCc2ccc(CO)cc2)O1 | 6.7
Cc1cc(C)c(C#N)c(Cl)n1 | 5.3
N#C/C(=C\c1c(F)cccc1Cl)c1nn(-c2ccccc2)c(-n2cccc2)c1C#N | 20.0
Cc1cccc(C)c1NC(=O)CCCSc1nc2ccccc2s1 | 13.5
O=C(CSc1cccc[n+]1[O-])Nc1ccc([N+](=O)[O-])cc1Cl | 6.3
CCn1cc(S(=O)(=O)Nc2ccc3c(c2)OCCO3)cn1 | 16.6
NC(=O)c1ccccc1OC1CCC1 | 22.4
CCCCN(CC(=O)NC(C)(C)C)C(=O)C(=O)Nc1ccc2c(c1)OCCO2 | 1.4
Cc1cccc(NC(=S)NCCc2ccc3c(c2)OCCO3)c1C | 4.0
C#CCOCCOCCOCCNc1nc(N2CCN(C(=O)[C@H](CCC(=O)O)n3cc(C(N)CO)nn3)CC2)nc(N2CCN(C(=O)[C@H](Cc3ccc(O)cc3)n3cc(C(N)CC(C)C)nn3)CC2)n1 (stereo partly drawn) | 17.2
COC(=O)c1ccc(C23CC4(C2)[C@H](CN(CC2CCCCC2)[C@@H]4c2ccccc2)C3c2ccccc2)cc1 (stereo partly drawn) | 20.4
Cc1ccsc1C(=O)Nc1ccc2c(c1)OCCO2 | 10.0
Cc1ccc(C(=O)c2sc3nc4c(cc3c2N)CCC4)cc1 | 16.6
NC(=O)C(=CNc1nc(-c2ccc(Cl)c(Cl)c2)cs1)C(N)=O | -3.2
Cc1ccc(Sc2ncccc2NC(=O)c2ccccc2Cl)cc1 | 14.9
O=C(/C=C/c1ccco1)N1CCCC(c2ccccc2)C1 (stereo not drawn) | 27.3
COCCCNC(=S)N/N=C/c1ccc2ccccc2c1 | 9.5
COc1ccc(-n2cc(C(=O)c3ccccc3O)cn2)cc1 | 12.3
CC(=O)NCCc1nc2ccccc2n1CCOc1ccc(C)cc1 | 20.9
NS(=O)(=O)c1cccc(NS(=O)(=O)c2ccc(/C=C/C(=O)O)cc2)c1 | -1.9
O=S(=O)(Nc1ccc(-n2cccc2)cc1)c1ccc(Cl)c(Cl)c1 | 14.5
CCOC(=O)C1(Cc2ccc(Cl)cc2)CCN(C(=O)CCc2ccncc2)CC1 | 0.7
CC(C)N1CCN(Cc2nc(-c3ccccc3)cs2)CC1CCO (stereo not drawn) | 12.8
Cn1cnc([N+](=O)[O-])c1SCC(O)CN1CCCCC1 (stereo not drawn) | 13.1
O=C(NC1CCCCC1)C(c1cccs1)N(Cc1cccs1)C(=O)c1cccs1 (stereo not drawn) | 11.3
Cc1ccc(S(=O)(=O)N(C)Cc2ccc(C(=O)NN=C(CC(C)C)CC(C)C)cc2)cc1 | 7.1
C/C(CC(=O)Nc1cc(C)ccn1)=N\NC(=O)C(=O)Nc1cccc(C)c1 | 2.8
CC(C)(C)NC(=S)Nc1cccc(C(F)(F)F)c1 | 8.2
O=C(c1nn2c(C(F)(F)F)cc(-c3cccs3)nc2c1Cl)N1CCCc2ccccc21 | 10.9
CCCCNC(=S)Nc1ccc(Oc2ccccc2)cc1 | 12.9
Cc1ccc(C(=O)NC(=S)Nn2cnnc2)cc1 | 13.5
Cc1ccc(NC(=O)C(=O)Nc2ccccn2)cc1 | 9.8
N#Cc1c(NC(=O)COC(=O)c2ccc(S(=O)(=O)N3CCCC3)cc2)sc2c1CCCCC2 | 15.2
Cc1ccc(-c2nc(SCC(=O)NCC3CCCO3)c(-c3ccc(C)cc3)[nH]2)cc1 (stereo not drawn) | 8.3
CSc1ncccc1C(=O)OCC(=O)NCc1ccc2c(c1)OCO2 | 1.8
CNCc1c(OCc2ccc(F)cc2)ccc2ccccc12 | 3.4
NCCCC[C@H]1CNC(=O)C(=O)N1CCCCC1CCCCC1 | 14.0
C/C(CC(=O)N1CCN(C=O)CC1)=N\NC(=O)c1ccc([N+](=O)[O-])cc1 | 6.9
Cc1cc(Cl)ccc1OCC(=O)N(Cc1ccco1)C1CCS(=O)(=O)C1 (stereo not drawn) | 18.1
Cc1cccc(CC2SC(N3CCN(c4ccccc4)CC3)=NC2=O)c1 (stereo not drawn) | 24.8
O=C(NCc1ccccc1)Nc1cccn(Cc2ccccc2)c1=O | 1.6
CCCCn1c(=S)[nH]c2c(oc3ccc(Cl)cc32)c1=O | 9.4
Cc1ccc(OCCCC(=O)Nc2ccc(S(=O)(=O)Nc3ccccn3)cc2)cc1 | -3.5

Next section, starting with the last 2 of the part before.
SMILES | Calb biofilm kill
CCCCn1c(=S)[nH]c2c(oc3ccc(Cl)cc32)c1=O | 9.4
Cc1ccc(OCCCC(=O)Nc2ccc(S(=O)(=O)Nc3ccccn3)cc2)cc1 | -3.5
COC1CCN(C(=O)CC2C(=O)NCCN2CC2CCCCC2)CC1 (stereo not drawn) | 9.3
COc1ccccc1-c1ccc(SCc2ccc(C)cc2)nn1 | 9.6
Cc1noc(NS(=O)(=O)c2ccc(NC(=O)CSc3nnc4c(n3)[nH]c3ccccc34)cc2)c1C | 9.1
CCCc1c(C(=O)Nc2ccc(N3CCOCC3)cc2)cnn1-c1ccccc1 | -2.1
CCCCNC(=O)COC(=O)c1ccc(SC)cc1OC | 9.6
c1ccc(-c2ncc3ccccn23)cc1 | 23.0
CCCCNC(=S)NNC(=O)c1csc(C(C)C)c1 | -3.2
CC(C)CN1C(=O)/C(=C(/C#N)C(=O)NC2CCCCC2)c2ccccc21 | 8.3
CC(C)C(C)(C#N)NC(=O)CSc1nc2scc(-c3ccc(F)cc3)c2c(=O)n1Cc1ccccc1 (stereo not drawn) | 11.0
CC(C)n1c(O)c(N=Nc2ccccn2)c2ccccc21 | 13.6
Cc1csc(NC(=O)C(NC(=O)c2ccccc2F)C(C)C)n1 (stereo not drawn) | 4.3
Cc1nnc(C)c2c(C)n(N)c(C)c12 | 12.6
CNC(=S)/N=C(/Nc1ccccc1)c1ccccc1 | 17.9
CCn1c(SCC(=O)Nc2cc(C)on2)nnc1-c1ccc(OC)cc1 | 12.7
Cc1cc(C)n(-c2ncc3c(n2)N(C)CCOC3=O)n1 | 18.5
Cc1ccc(Sc2ncnc3onc(C)c23)c(C)c1 | 8.4
Oc1cccc(/C=N/NC(=S)NCCN2CCOCC2)c1O | -16.7
COC(=O)c1sc2cc([N+](=O)[O-])cc(SCC(C)C)c2c1N | 10.2
O=C(NCc1n[nH]c(=S)n1-c1ccc(Br)cc1)c1cccs1 | 15.8
CN(Cc1ccc2nsnc2c1)Cc1nc(Cc2cccc(F)c2)no1 | 9.8

Copied from the list:
In Calb biofilm kill, COC1CCN(C(=O)CC2C(=O)NCCN2CC2CCCCC2)CC1 (stereo not drawn) has the entry 9.3
In Calb biofilm kill, CC(C)n1c(O)c(N=Nc2ccccn2)c2ccccc21 has the entry 13.6
In Calb biofilm kill, CC(C)CN1C(=O)/C(=C(/C#N)C(=O)NC2CCCCC2)c2ccccc21 has the entry 8.3
In Calb biofilm kill, Cc1noc(NS(=O)(=O)c2ccc(NC(=O)CSc3nnc4c(n3)[nH]c3ccccc34)cc2)c1C has the entry 9.1

Further compounds.
SMILES | Calb biofilm kill
CCOC(=O)/C=c1\s/c(=C\c2sccc2C)c(=O)n1CC(=O)NCc1ccc(C)cc1 | 15.2
Cc1cc(/C=C(\C#N)C(=O)O)c(C)n1-c1ccc(Br)cc1 | 18.3
CC(=O)N1CCN(c2nc(-c3cccs3)nc3ccccc23)CC1 | 9.2
Cc1c(C(=O)N2CCCc3ccccc32)sc2nc(-c3ccccc3)cn12 | -4.8
COC(=O)C(C)Nc1cccc(Br)c1 (stereo not drawn) | 24.8
CC(C)NC(=O)CSc1nnc(CNC(=O)OC(C)(C)C)n1C | 20.8
Cc1nc(C(C)NC(=O)CCc2nnc(CCCc3ccccc3)o2)c(C)s1 (stereo not drawn) | 14.7
CC12CCC(C(=O)N(CSC(=S)N/N=C\c3ccccc3O)C1=O)C2(C)C (stereo not drawn) | 17.1
Cc1ccc(F)cc1NCC(=O)Nc1ccc(Br)cc1 | -0.2
O=CN1CCN(S(=O)(=O)c2ccc(Cl)c(C(=O)O)c2)CC1 | 8.2
NC(=O)c1ccc(NC(=O)CCc2nc3ccccc3s2)cc1 | 4.9
O=C(N/N=C/c1ccco1)c1csc2c1CCCC2 | 9.7
C=CCc1cccc2cc(C(=O)N3CCN(c4ccccn4)CC3)c(=O)oc12 | 11.0
CC(NC(=O)/C=C/c1ccc(Br)cc1)c1ccc(Cl)cc1 (stereo not drawn) | 5.6
O=C(Nc1ccc(F)cc1F)Nc1ccc(F)cc1F | 5.0
Nc1ncccc1OCc1cccc(C(F)(F)F)c1 | -2.5
Cc1cccc(NC(=O)NNC(=O)c2ccc(C)c([N+](=O)[O-])c2)c1 | 13.1
c1ccc(CSc2ccc3nnc(-c4ccccn4)n3n2)cc1 | -1.7
O=C(CN(CC1CCCO1)C(=O)CNS(=O)(=O)c1ccccc1)NCc1ccco1 (stereo not drawn) | 12.8
CNC(=S)N(CCc1c(C)[nH]c2ccccc12)Cc1cc(OC)c(OC)c(OC)c1 | 14.6
COc1ccc2cc(C(=O)C3CCCN(C(=O)c4csnn4)C3)ccc2c1 (stereo not drawn) | 13.5
O=C(C1CCN(Cc2ccc(F)cc2)CC1)N1CCN(C/C=C/c2ccccc2)CC1 | 10.4
COc1cccc(NC(=O)c2ccc(NCCCN3CC(C)CC(C)C3)c([N+](=O)[O-])c2)c1 (stereo not drawn) | 6.9
CCOC(=O)N1CCN(S(=O)(=O)c2ccc(C(=O)NNc3nc4cc(C)cc(C)c4s3)cc2)CC1 | 16.1
C=C(C)CC(Nc1ccc(OC)cc1)c1ccco1 (stereo not drawn) | 5.6

Another view of some results above:
> COc1cccc(NC(=O)c2ccc(NCCCN3CC(C)CC(C)C3)c([N+](=O)[O-])c2)c1 (stereo not drawn)
  Calb biofilm kill = 6.9

> CCOC(=O)N1CCN(S(=O)(=O)c2ccc(C(=O)NNc3nc4cc(C)cc(C)c4s3)cc2)CC1
  Calb biofilm kill = 16.1
